Calb biofilm kill: mixture kills Candida albicans biofilm cells. C. albicans biofilm persisters + clotrimazole, fluorescence viability; primary screen in compound mixtures of four per well. inhibition, % at 7.6 µM. hit rate 0.02% among 120,000;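 active = inhibition above 30.3% in the primary screen of four-compound pools, then above 30% when the compound was retested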;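 note: compounds exposed to preformed 24 h biofilms for 48 h; the number belongs to the whole pool; some results filed as inactive read as strong as hits; inactives centre near 12; 0% = biofilm with clotrimazole alone and 100% = kill control; retested singly at about 60 µM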
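System: C. albicans CAF4-2 wild-type biofilms; Medium: RPMI/MOPS medium, pH 7.0; Reagent: Clotrimazole, 50 µg/mL; Times: biofilm formation 24 h, compound exposure 48 h, 37 °C; Detection: 2-h Alamar Blue fluorescence, 535/590 nm excitation/emission; Evaluation: percent inhibition of biofilm viability.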
* hit, by the source's call. These rows are one share of the data. The share of hits here may be higher or lower than overall.

SMILES | Calb biofilm kill
COc1ccc(Oc2coc3cc(OCC(=O)N4CCCCC4)ccc3c2=O)cc1 | 5.9
Cc1ccc(CNC(=O)c2ccc(N(C)C)cc2)cc1 | 25.0
COc1ccc(NC(=O)COC(=O)CNS(=O)(=O)c2ccc(C)cc2)c(OC)c1 | 10.1
Cc1ccc(S(=O)(=O)NNC(=O)c2cccs2)c(C)c1 | 14.9
Cc1sc2ncn(-c3ccccc3)c(=O)c2c1C | 21.8
Cc1[nH]c2ccccc2c1N=Nc1ccccc1F | 14.6
CCc1nnc(NS(=O)(=O)c2ccc(NC(=O)COc3ccc4ccccc4c3)cc2)s1 | 10.6
O=C1CC(c2cccc(Cl)c2)CC(O)=C1C=NC1CCCC1 (stereo unspecified) | 9.4
CC(C)(C)c1ccc(NC(=O)COC(=O)c2ccc([N+](=O)[O-])s2)cc1 | 11.6
CC(OC(=O)c1cc(Cl)ccc1[N+](=O)[O-])C(=O)NC(C)c1ccc(F)cc1 (stereo unspecified) | 10.4
CCNC(=S)N1N=C2c3ccccc3CCC2C1c1ccc(F)cc1 (stereo unspecified) | 21.9
O/N=C/c1cccnc1Sc1ccccc1 | 12.3
CC(C)(C)C(=O)NC(=S)NNC(=O)c1ccncc1 | 21.4
COc1cc([N+](=O)[O-])ccc1NC(=O)CN1CCOCC1 | 29.7
O=C(Nc1nc2ccccc2n1CCN1CCOCC1)c1ccc(Cl)cc1 | 22.6
C=CCNC(=O)CSc1nnc(-c2ccncc2)n1CCc1ccccc1 | -1.2
CS(=O)(=O)N1CCC(C(=O)NCc2ccc(F)cc2)CC1 | 8.3
O=c1c(-c2c(O)cc(O)c3c(=O)cc(-c4ccc(O)cc4)oc23)c(-c2ccc(O)cc2)oc2cc(O)cc(O)c12 | 26.1
CNS(=O)(=O)c1ccc(NC(=O)c2cncc(Br)c2)cc1 | 11.4
Cc1ccc(-n2c(C)nn(CCOc3ccccc3)c2=O)cc1 | 6.4
Cc1ccc(-c2nc(C)sc2CC(=O)OCC(=O)Nc2cccc([N+](=O)[O-])c2)cc1 | 19.1
N#Cc1c(NC(=O)c2cc([N+](=O)[O-])ccc2N2CCOCC2)sc2c1CCCC2 | 10.2
O=C(Nc1ccc(F)cc1)c1ccc(CSc2ccccc2)o1 | 3.5
COC(=O)c1ccc(NC(=O)CN2CCC(NC(=O)c3ccco3)CC2)cc1 | 11.8
Cc1ccc(S(=O)(=O)Nc2nc(C)c(C(=O)N/N=C/c3ccccc3)s2)cc1 | 19.8
The list goes on:
SMILES | Calb biofilm kill
COC(=O)c1cccc(NC(=O)/C=C/c2ccc([N+](=O)[O-])cc2)c1 | 19.2
O=C(O)CCC(=O)Nc1ccc(N2CCCCC2)c(C(=O)O)c1 | -3.8
O=C(N/N=C\c1cn[nH]c1-c1ccccc1)c1cccs1 | 16.3
CN1CCN(c2nnc(-c3ccccc3)c(-c3ccccc3)n2)CC1 | 19.3
CN=c1scc(-c2c[nH]c3ccccc23)n1C | 11.4
C[C@@H](C(=O)N1CCN(C(=O)OC(C)(C)C)CC1)n1cc(CCC(=O)O)nn1 | 16.1
CC(Nc1c([N+](=O)[O-])c(=O)oc2ccccc12)c1ccccc1 (stereo unspecified) | 20.7
COCCNC(=O)c1ccccc1NC(=O)Cc1ccccc1 | 7.2
COc1ccc(-n2ncc(C(=O)N3CCN(c4ccc(F)cc4)CC3)c2C)cc1 | 17.4
NC1=Nc2cccc3cccc1c23 | 6.5
CC1(C)c2ccccc2N(CC(N)=O)C12C=Cc1ccccc1O2 (stereo unspecified) | 31.4
Cc1ccc2sc(-c3ccc(NC(=O)CCN4C(=O)c5ccccc5C4=O)cc3)nc2c1 | 12.5
CC(=O)Nc1ccccc1O | 8.4
O=S(=O)(c1ccc(Cl)s1)N1CCCCC1 | 0.5
Cc1ccccc1NC(=O)c1cc(S(=O)(=O)N2CCOCC2)cs1 | -3.9
O=S(=O)(c1ccc(Cl)cc1)N1CCN(C(=S)Nc2ccc(F)c(Cl)c2)CC1 | 6.5
Cc1ccc(CSc2nnc(CNc3ccc(F)cc3)o2)cc1 | 18.6
Cc1cc(NC(=O)/C=C/C(=O)N(CC(=O)NC2CCCC2)c2cccc3ccccc23)no1 | 16.3
Cc1ccc(C(=O)c2ccc(N3CCOCC3)c(F)c2)cc1 | -5.4
Cc1ccc(C(c2nnnn2CC2CCCO2)N2CCN(Cc3ccccc3)CC2)cc1 (stereo unspecified) | -14.6
Cc1c(C(=O)NCCSCc2c(F)cccc2Cl)cnn1-c1ccc(F)cc1 | 15.0
CN=C(Nc1ccc(C(=O)OC)s1)c1ccc(Cl)cc1 | 8.9
O=C(/C=C/c1ccco1)Nc1ccccc1C(=O)Nc1cccc(C(=O)O)c1 | 19.2
O=C(Nc1cccc(-c2csc(Nc3ccc(Cl)cc3)n2)c1)c1cc([N+](=O)[O-])cc(C(F)(F)F)c1 | 19.3
CCN(CC)S(=O)(=O)c1cc(C(=O)OCC(=O)Nc2cccc(C)c2C)ccc1F | 3.0
(next part)
SMILES | Calb biofilm kill
COc1ccc(OC)c(NC(=O)c2ccccc2N(Cc2ccccc2)S(C)(=O)=O)c1 | 6.9
NS(=O)(=O)c1ccc(NC(=O)C2(c3ccccc3)CCCC2)cc1 | 15.9
Cc1cc(-c2nnc(SCC(=O)Nc3ccccc3)n2C)no1 | 21.9
O=C(Nc1ccc(Cl)cc1)Nc1ccc(N2CCCC2)c(S(=O)(=O)Nc2ccccc2Cl)c1 | 5.9
CC(C)N(C(=S)NCc1ccccc1)C(C)C | 10.4
CC(C)Cc1nc(SCC(=O)Nc2nnc(CC(C)C)s2)n[nH]1 | 12.2
Cc1ccc(N2CC(O)=C(c3ccccc3)C2=N)cc1 | 11.2
Nc1ccc(C(=O)c2cccs2)cn1 | 9.5
COc1cc(O)cc2cc3c(c(O)c12)C(=O)CC(C)(O)O3 (stereo unspecified) | 24.0
CCOc1c(Cl)cc(CNCc2ccncc2)cc1OC | 14.7
O=[N+]([O-])c1ccccc1/C=N/n1c(C2CCCCC2)n[nH]c1=S | 11.3
CC1Cc2ccccc2N1C(=O)NC1CC(=O)N(c2ccc3c(c2)OCCO3)C1 (stereo unspecified) | 15.3
CCC(C)NCCOCCOc1cc(C)c(Cl)c(C)c1 (stereo unspecified) | 11.4
CCOC(=O)c1cncc(O)c1 | 3.1
C=CCNC(=O)c1onc(CSc2ccc(Cl)cc2)c1C(=O)NCC=C | 17.8
Cn1c(=O)c2c(ncn2CC(=O)Nc2nc(-c3ccc(F)c(F)c3)cs2)n(C)c1=O | 30.5
O=c1[nH][nH]cc1C=Nc1ccc(Cl)cc1 | 3.9
CN(C)CCCC1(O)c2ccccc2C=Cc2ccccc21 | 12.8
Cc1nc(COC(=O)c2cc(O)c3ccccc3c2O)cs1 | 12.6
Cc1cc(Br)ccc1OCCN1CC(C)OC(C)C1 (stereo unspecified) | -10.0
CCc1cccc(C)c1NC(=O)COC(=O)CNS(=O)(=O)/C=C/c1ccccc1 | 4.5
O=S(=O)(c1cc(-c2nnc(-c3ccc(Br)cc3)o2)ccc1Br)N1CCCCCC1 | 6.5
Nc1ccc(-c2nc3cc([N+](=O)[O-])ccc3o2)cc1 | 20.0
Cn1c(=O)nc2n(Cc3ccccc3)c3ccccc3cc-2c1=O | 7.9
CCN(CC)CCN1C(=O)c2cccc3cc(N)cc(c23)C1=O | 15.4
(listing goes on)
SMILES | Calb biofilm kill
NNC(=S)Nc1ccc(S(=O)(=O)N2CCOCC2)cc1 | 16.1
Cc1noc(NC(=O)c2cccc(Cl)c2Cl)c1C#N | 8.4
C[C@H](NC(=O)c1nc[nH]c1C(=O)NCc1ccc(CNC(=O)OC(C)(C)C)cc1)C(=O)OC(C)(C)C | 12.3
O=C(CCc1ccccc1)NNC(=O)c1ccccc1F | 2.9
Cc1nc(SCC(=O)NC2CCCCC2)[nH]c(=O)c1C | 15.5
COc1ccc(C(=O)Nc2ccccc2C(=O)N/N=C/c2ccco2)cc1 | 14.9
COc1cccc(CNC(=O)Cc2nc3nc(C)cc(C)n3n2)c1 | 16.5
CCOC(=O)C1(Cc2ccccc2Cl)CCN(Cc2csc(C(C)=O)c2)CC1 | -0.5
O=C(NCc1ccco1)C1CC(=O)N(c2ccc(Cl)cc2)C1 (stereo unspecified) | -2.8
C/C(=N\N1CCN(Cc2ccc(Cl)cc2)CC1)c1ccc(F)cc1 | 24.8
COc1ccc(C2NC(=S)NC3=C2CCc2ccccc23)cc1OC (stereo unspecified) | 18.9
O=C(CCn1nnc2ccccc21)N/N=C\Cc1ccccc1 | 18.7
CCC(C)[C@H](NC(=O)NCc1ccc(Cl)cc1)C(=O)O (stereo partly specified) | 19.7
O=C(NC1CCCCC1)c1ccccc1NC(=O)C1CC(=O)N(c2ccccc2)C1 (stereo unspecified) | 13.5
COc1ccc(-c2[nH]ncc2CN(CCO)CC23CC4CC(CC(C4)C2)C3)c(OC)c1 | 13.3
CCOC(=O)CNC(=O)c1cccnc1Oc1ccc(Cl)cc1 | 14.1
CCCS(=O)(=O)Nc1c(OC)ccc2c1c(C(=O)OCC)c(C)n2C | 14.4
COc1cc(CNC(=O)C2CCCN2S(=O)(=O)c2ccccc2)cc(OC)c1OC (stereo unspecified) | 18.8
COc1ccc(NC(=O)c2c(N)no[n+]2[O-])c(OC)c1 | 16.5
N#CCCS(=O)(=O)c1ccc(N)cc1 | 20.1
O=C(NC(Cc1ccc(O)cc1)C(=O)O)c1ccco1 (stereo unspecified) | 16.1
CCOC(=O)/C=C1\SCC(=O)N1CC(=O)N1CCOCC1 | 4.5
C/C(N)=C(/C#N)C(=O)COC(=O)c1ccc(C#N)cc1 | 7.7
CN(Cc1cn(-c2ccccc2)nc1-c1cc2ccccc2o1)C(=O)CCC(=O)O | 13.1
C=CCn1c(SCC(=O)NNC(=S)Nc2ccccc2)nnc1-c1ccccc1 | 5.1

17 of these compounds in a different format:
SMILES,Calb biofilm kill
NNC(=S)Nc1ccc(S(=O)(=O)N2CCOCC2)cc1,16.1
Cc1noc(NC(=O)c2cccc(Cl)c2Cl)c1C#N,8.4
C[C@H](NC(=O)c1nc[nH]c1C(=O)NCc1ccc(CNC(=O)OC(C)(C)C)cc1)C(=O)OC(C)(C)C,12.3
O=C(CCc1ccccc1)NNC(=O)c1ccccc1F,2.9
Cc1nc(SCC(=O)NC2CCCCC2)[nH]c(=O)c1C,15.5
COc1ccc(C(=O)Nc2ccccc2C(=O)N/N=C/c2ccco2)cc1,14.9
COc1cccc(CNC(=O)Cc2nc3nc(C)cc(C)n3n2)c1,16.5
CCOC(=O)C1(Cc2ccccc2Cl)CCN(Cc2csc(C(C)=O)c2)CC1,-0.5
O=C(NCc1ccco1)C1CC(=O)N(c2ccc(Cl)cc2)C1 (stereo unspecified),-2.8
C/C(=N\N1CCN(Cc2ccc(Cl)cc2)CC1)c1ccc(F)cc1,24.8
COc1ccc(C2NC(=S)NC3=C2CCc2ccccc23)cc1OC (stereo unspecified),18.9
O=C(CCn1nnc2ccccc21)N/N=C\Cc1ccccc1,18.7
CCC(C)[C@H](NC(=O)NCc1ccc(Cl)cc1)C(=O)O (stereo partly specified),19.7
O=C(NC1CCCCC1)c1ccccc1NC(=O)C1CC(=O)N(c2ccccc2)C1 (stereo unspecified),13.5
COc1ccc(-c2[nH]ncc2CN(CCO)CC23CC4CC(CC(C4)C2)C3)c(OC)c1,13.3
CCOC(=O)CNC(=O)c1cccnc1Oc1ccc(Cl)cc1,14.1
CCCS(=O)(=O)Nc1c(OC)ccc2c1c(C(=O)OCC)c(C)n2C,14.4

The list goes on.
SMILES | Calb biofilm kill
O=C(CC1SC(N2CCOCC2)=NC1=O)Nc1cc([N+](=O)[O-])ccc1Cl (stereo unspecified) | 18.8
COc1ccc(N2CCN(C(=O)c3cccnc3)CC2)c([N+](=O)[O-])c1 | 7.7
Cc1ccc(NS(=O)(=O)c2ccc(C(=O)N3CCN(c4ncccn4)CC3)cc2)cc1 | 6.3
O=C(NCC1CCCO1)C(c1cccs1)N(Cc1cccs1)C(=O)c1ccc(-c2ccccc2)[nH]1 (stereo unspecified) | 12.2
COc1ccc(C(=O)Nc2nc(-c3ccccc3)c(C(C)=O)s2)c(OC)c1 | 7.8
O=C(OCc1ccc([N+](=O)[O-])cc1)c1ccc(N2CCCC2)c([N+](=O)[O-])c1 | 20.1
CC(C)n1nc(C(=O)Oc2cccc(Cl)c2Cl)c2ccccc2c1=O | 0.9
CC(=O)c1cc(CN2CCN(CCc3ccccc3)C(CCO)C2)cs1 (stereo unspecified) | 30.6
OCCC1CN(CCCc2ccccc2)CCN1Cc1ccccc1 (stereo unspecified) | 27.5
O=C(NC(=S)Nc1ccccc1N1CCCC1)c1ccc(F)cc1 | 26.8
COC(=O)c1c(NC(C)=O)csc1C | 22.0
CCOc1ccccc1C(=O)N[C@H](C(=O)Nc1nc2c(s1)CCCC2)C(C)C | 11.7
Cc1ccccc1S(=O)c1ccccc1C(=O)O (stereo unspecified) | 19.9
O=C1c2ccccc2C(=O)N1CC1c2ccccc2CCN1C(=O)CN1CCOCC1 (stereo unspecified) | 20.3
Cc1ccccc1OCc1nnc(SCc2nc3ccccc3c(=O)[nH]2)n1C | 4.7
CCC(=O)Nc1cc(C(=O)OCc2ccc(C(=O)Oc3ccccc3)cc2)ccc1C | 17.6
COc1cc(CNc2nc3ccccc3n2C)cc(OC)c1OC | 8.0
C/C(=C\COc1cc(=O)[nH]c2ccccc12)CCC(O)C(C)(C)O (stereo unspecified) | 15.7
Cc1cc(-c2cc(C(=O)NC3CCCC3)on2)nc(NCC2CC2)n1 | -0.4
CC(=O)c1ccccc1NC(=O)COC(=O)CCCN1C(=O)c2cccc3cccc(c23)C1=O | 14.1
Cc1nn(C2CCS(=O)(=O)C2)c(Cl)c1/C=C/C(=O)OCC(=O)Nc1ccccc1[N+](=O)[O-] (stereo unspecified) | 8.5
Cc1ccc(S(=O)(=O)N2CCCCC2)cc1NC(=O)COC(=O)C1=COCCO1 | 5.5
COc1ccc(NC(=S)Nc2cccc(C(F)(F)F)c2)c(C)c1 | 8.5
